Screening results from PubChem BioAssay.
TRPV1 potentiator = human TRPV1 potentiation; Q8NER1; TRPV1-expressing cells, Fluo-8 calcium influx, capsaicin EC20 potentiation; host cell line not named in the record; control for the full effect not named in the record; potentiation, % at 8.33 µM; 0.02% of 320,000 active; AID 540277; active means potentiation above 80%; inconclusive means 30% to 80%; inactive means below 30%; further: 0% is about no effect
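TRPV1-expressing cells were cultured overnight at 35.5C and loaded with Fluo-8 calcium dye for 40 to 90 min at room temperature. After a 10 s baseline, compound was added and calcium influx was read kinetically for 3 min (ex 480/em 520 nm).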
gsp antag = antagonizes gsp, the McCune-Albright syndrome mutation; AID 624288; Potency, µM (series often up to 76.9 µM), for the others: at the highest dose activity change, negative = inhibition, most hits filed as inhibitors; gsp-mutant cells, cAMP HTRF, 30 min; control for the full effect not named in the record; 0.4% of 340,000 active; active = falling curve of any shape with a large fitted effect; inconclusive = falling curve, mostly with a smaller effect; inactive = flat or rising curve; cell line not stated here;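 further: intracellular cAMP measured with PDE inhibitor Ro 20-1724 present during compound exposure; potency means the concentration at half of the fitted maximal effect; on the % scale 0 is the no-effect control and ±100 the full control effect; nearly all actives have a fitted effect of over 65% in size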
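Measurement of cellular cAMP by homogeneous time-resolved fluorescence following a 30 min compound exposure at 37C. The PDE inhibitor […] was present throughout; the assay buffer was DPBS with 0.05% BSA and 0.005% Tween 20.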
ClpP mod = qHTS Assay for Activators of ClpP. ATP-dependent Clp protease proteolytic subunit (Bacillus subtilis (strain 168)), P80244. purified B. subtilis ClpP, FRET peptide cleavage, 20 min. Potency, µM (top dose mostly 57.5 µM), without a hit: top-dose activity change, negative = active. 1.9% of 340,000 active; active = well fitted falling curve with a large enough effect; inconclusive = small, poorly fitted or top-dose-only effect; inactive = no such curve, though single readings can be large or run the other way; further: potency means the concentration at half of the fitted maximal effect; the source files actives as falling curves though it sought activators and does not explain the sign; nearly all actives have a fitted effect of over 65% in size; many hits overshoot -100%
Target sequence (P80244 whole entry, looked up): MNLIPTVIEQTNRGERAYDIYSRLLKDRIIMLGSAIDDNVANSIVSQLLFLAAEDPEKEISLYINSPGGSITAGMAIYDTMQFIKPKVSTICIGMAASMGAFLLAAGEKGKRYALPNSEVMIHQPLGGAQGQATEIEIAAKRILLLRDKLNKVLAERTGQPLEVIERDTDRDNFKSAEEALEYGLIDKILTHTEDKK
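ClpP 10 microg/mL final, pH 8 Tris/KCl buffer with BSA, glycerol, Tween-20; compound pinned in; FRET-FV substrate; RT 20 min; Ex320/Em430; ΔFRET vs ADEP 5.8 microM, DMSO, no enzyme.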
Sfp PPTase inh = blocks B. subtilis Sfp PPTase activity; Biochemical Sfp PPTase activity, qHTS; 3.5% of 310,000 active; Q9F4F7; AID 1490; Potency, µM, without a hit: max response, negative = inhibition, usual class: inhibitors; active means well fitted inhibition curve with a large enough effect; inconclusive means small, poorly fitted or top-dose-only effect, or another doubt; inactive means no such curve, though single readings can be large or run the other way;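 further: the enzyme is Sfp with the accession as filed and its product quenches rhodamine fluorescence; potency means the concentration at half of the fitted maximal effect; 0% = enzyme reaction without inhibitor and -100% = no enzyme wells; top concentration of the series not given in the record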
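Buffer: 50 mM Hepes-Na pH 7.6, 10 mM MgCl2, 0.01% Nonidet P-40, 0.01% BSA. Enzyme 15 nM, pre-exposed to compound 15 min; substrates then added and fluorescence change tracked over 30 min.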
gsp ag = gsp mutant agonism; gsp mutant cells, cAMP HTRF, 30 min; control for the full effect not named in the record; Potency, µM (titrated, usually from 76.9 µM), for the others: at the top dose activation (cAMP increase), hits mostly activators; 0.13% of 340,000 active; active = well fitted activation curve with a large enough effect; inconclusive = small, poorly fitted or top-dose-only effect, or another doubt; inactive = no such curve, though single readings can be large or run the other way; cell line not stated here;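 further: phosphodiesterase inhibitor Ro 20-1724 added with compounds to block cAMP breakdown; potency means the concentration at half of the fitted maximal effect; nearly all actives have a fitted effect of over 60% in size; about a fifth of the inactives were tested at one dose only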
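Cells stably selected in G418 were plated at 2000/well, grown 16-24 hr, then given compounds in DMSO with the PDE inhibitor […] (300 uM solution added) for 30 min at 37C; cAMP was read by HTRF.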
D2 PAM = positive allosteric modulators of human D2 dopamine receptor. P14416. DiscoveRx D2 beta-arrestin cells, luminescence, 90 min; 100% = 57 uM dopamine signal. potentiation, % (test concentration not listed). 0.23% of 360,000 active. AID 624464; active = potentiation of 50% or more; inconclusive = 30% to 50%; inactive = 30% or less;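 further: compound concentration not given in the record; tested on top of an EC20 dose of dopamine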
Target sequence (P14416 whole entry, looked up): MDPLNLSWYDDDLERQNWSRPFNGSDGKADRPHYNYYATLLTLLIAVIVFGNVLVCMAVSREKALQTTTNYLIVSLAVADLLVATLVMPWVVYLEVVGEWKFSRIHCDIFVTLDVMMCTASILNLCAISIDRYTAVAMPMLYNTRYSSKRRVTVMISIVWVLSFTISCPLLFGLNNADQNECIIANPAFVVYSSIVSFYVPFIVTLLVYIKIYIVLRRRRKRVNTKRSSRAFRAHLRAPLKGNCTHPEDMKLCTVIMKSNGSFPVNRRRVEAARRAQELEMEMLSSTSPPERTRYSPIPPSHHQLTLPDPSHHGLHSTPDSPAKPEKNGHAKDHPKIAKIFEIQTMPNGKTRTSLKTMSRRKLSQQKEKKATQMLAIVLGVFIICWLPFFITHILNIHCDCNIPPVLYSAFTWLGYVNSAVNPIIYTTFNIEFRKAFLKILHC
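PathHunter D2 cells, attached overnight at 37 deg C, received compound in DMSO plus dopamine at EC20 (50 nM final) for 90 min at 37 deg C. Beta-arrestin recruitment was read as luminescence after 1 h with detection reagent at ambient temperature.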
Menin-MLL FL inh = displaces fluorescein MLL peptide from human menin | Fluorescence polarization, fluorescein-MLL peptide displacement from menin | FP activity change, % at 61.4 µM | 290,000 tested, under 10 active | AID 1766; inconclusive = falling polarisation curve, or a change in total fluorescence; inactive = total fluorescence flat and polarisation flat or rising; no compound was filed as active; the % refers to the polarisation; negative = inhibition;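 further: % of control where 0% means no effect; inhibitors lower the polarisation; unlabelled MLL peptide was the positive control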
Active calls of the source: *; ? = inconclusive; · = no result given; & = joins results of further samples; [ ] = another dose, or the depositor's remark. Hits appear at their usual frequency; any-hit rate near 5.1%.

SMILES	TRPV1 potentiator	gsp antag	ClpP mod	Sfp PPTase inh	gsp ag	D2 PAM	Menin-MLL FL inh
CC/C(=C1/C(=O)CC(C)(C)C(C(=O)OC)C1=O)N1CCCC1 (stereo not given)	5	-5%	2.5%	14%	-45%[inhibitor]	9	0.6
CCOc1ccc(NC(=O)CN(C)C(=O)c2cc(C3CC3)nn2-c2ccccc2)cc1OCC	6	-7%	-21%	·	-10%[15.4 µM]	-18	·
CC1(C(=O)O)CCC(C(=O)Nc2ccccc2O)C1(C)C (stereo not given)	4	3%	-1.8%	2%	-3%	-6	-2.6
COc1cccc(-c2cc(=O)c3cc(NC(C)=O)ccc3[nH]2)c1	7	6%	4.3%	11%	29%	-19	0.6
CC(Oc1ccc(Cl)cc1)C(=O)Nc1sccc1C(N)=O (stereo not given)	28	-22%	·	-3%	-11%[15.4 µM]	11	-3.3
CCCn1nnc(NC(=O)c2ccc(F)cc2)n1	4	0%	2.0%	11%	2%	-7	6.8
CC1CN(S(=O)(=O)c2cccc(-c3cn4ccccc4n3)c2)CC(C)O1 (stereo not given)	3	-7%	-15%	14%	-2%	-2	-3.2
O=C(CN1CCOCCOCCOCC1)Nc1ccccc1	5	8%	-7.8%	13%	-49%[inhibitor]	-7	0.4
COc1ccc(C2CC(=O)C(C=NCCCN3CCOCC3)=C(O)C2)cc1 (stereo not given)	3	3%	-0.4%	0%	-45%[inhibitor]	-1	1.0
Cc1ccccc1NC(=O)Cc1nc(COC(=O)c2cccc(O)c2)cs1	17	-3%	-1.6%	·	?	2	·
Cc1ccc(CNC(=O)CSCc2cccc(F)c2)cc1	-26	14%	-0.1%	12%	-7%[15.4 µM]	-5	-0.4
COCCN(CC1CCCN(C2Cc3ccccc3C2)C1)C(=O)CCSC (stereo not given)	10	-4%	0.1%	22%	15%	-2	-3.1
CCCC(=O)Nc1ccc2nc(C)n(Cc3ccccc3Cl)c(=O)c2c1	1	-8%	-18%	-4%	-6%	-2	-4.0
Cc1ccc(N2C(=O)C(NC(=O)c3c(F)cccc3F)(C(F)(F)F)C3=C2CC(C)(C)CC3=O)cc1 (stereo not given)	6	-4%	0.7%	1%	-11%[15.4 µM]	-8	4.6
O=C1NC(c2ccccc2)C(C(=O)c2cccs2)C(O)(C(F)(F)F)N1 (stereo not given)	1	-5%	0.7%	20%	-36%[inhibitor]	-3	-1.2
O=C(CSc1nnc(-c2ccc(Cl)cc2)o1)N1CCN(c2ccccc2)CC1	5	·	·	9%	·	·	1.6
COc1ccc(CNC(=O)C2CCCN(c3nc4ccccc4o3)C2)c(OC)c1 (stereo not given)	-9	-18%	-1.1%	5%	-12%	-13	2.9
CCCCOc1ccc(CCC(=O)N/N=C/c2ccco2)cc1	28	5%	·	-1%	9%[15.4 µM]	-4	1.6
O=C(COC(=O)CCOc1ccccc1)Nc1ncc(Cl)cc1Cl	0	7%	?	9%	14%	-6	-3.3
Cc1ccc(NC(=O)CN2C(=O)NC(Cc3c[nH]c4ccccc34)C2=O)cc1 (stereo not given)	8	1%	-3.2%	·	6%	-12	·
N#C/C(=C\c1ccc(OCC(N)=O)cc1)c1ccccc1	-11	-25%	?	3%	22%	-12	-2.1
Cc1cc(C)c(C)c(S(=O)(=O)NC(C(=O)NCCc2ccco2)C(C)C)c1C (stereo not given)	17	1%	0.0%	·	-2%	-5	·
Cc1cc(C)cc(OCC(=O)OCC(=O)Nc2c(C)n(C)n(-c3ccccc3)c2=O)c1	9	?	·	6%	-44%[15.4 µM]	-7	-0.4
Nc1nnn(CC(=O)N/N=C/c2ccc(Cl)cc2Cl)n1	25	4%	-33%	6%	2%	1	-0.4
O=C(N/N=C/c1ccc(-c2ccc([N+](=O)[O-])cc2)o1)C(O)c1ccccc1 (stereo not given)	4	-30%	·	-7%	-4%[15.4 µM]	12	9.6
S=c1[nH]nc(-c2ccccn2)n1/N=C/c1c(Cl)cccc1Cl	?	-5%	0.7%	?	2%[15.4 µM]	-18	6.1
COc1cccc(C(=O)N2CCN(Cc3cccc(F)c3)CC2)c1	?	-8%	0.1%	50µM*	-16%	10	3.1
Cc1ccc2c(COC(=O)CNS(=O)(=O)c3ccccc3)cc(=O)oc2c1	·	-4%	-29%	·	-12%	-2	·
CCCc1cc(=O)[nH]c(SCCCCN2C(=O)c3ccccc3C2=O)n1	?	-6%	·	2%	-3%	1	1.5
CNC(=S)Nc1ccc(N2CCCC2)c(S(=O)(=O)Nc2ccc(OC)cc2)c1	·	1%	-6.5%	·	-5%	26	·
O=C1CCCN1CCCNS(=O)(=O)c1cccs1	·	18%	-0.6%	·	4%	-2	·
CCCOc1nc2c(c(=O)n(C)c(=O)n2C)n1Cc1cccc2ccccc12	6	-15%	-0.3%	-24%	25%	-5	3.1
C=CCN(c1ccccc1)S(=O)(=O)c1cccc(C(=O)OCC(=O)NC2CC2)c1	-6	·	·	5%	14%[15.4 µM]	-23	-2.3
CCOC(=O)CN(C)Cc1c[nH]c2ccccc12	20	·	·	-18%	·	·	2.7
Cc1ccc(NS(=O)(=O)c2ccc(-n3cccn3)cc2)c(Br)c1	·	·	0.5%&-23%	·	12%	-10	·
COc1ccccc1C(=O)NC(=O)COC(=O)c1ccc(NC(=O)CC#N)cc1	-2	8%	-7.5%	·	-2%	0	·
O=C(NC1CCCc2ccccc21)C1CCN(c2c3c(nc4ncnn24)CCC3)CC1 (stereo not given)	19	-1%	-0.7%	-5%	29%	0	1.7
O=C(Nc1ccc(S(=O)(=O)N2CCCCCC2)cc1)c1ccco1	-9	8%	-1.6%	-2%	8%	4	-0.5
CCN1C(=O)[C@H]2[C@@H](c3ccc(C)cc3)N[C@]3(CCCN(Cc4ccc(Cl)cc4)C3=O)[C@H]2C1=O	·	·	-0.4%	·	0%	-3	·
Cc1cc(-c2nc(-c3ccncc3)no2)ccc1[N+](=O)[O-]	-7	7%	-0.3%	-4%	-2%[15.4 µM]	-7	0.1
COc1cc(OC)c(C2CC(=O)N3CN(C)CSC3=C2C#N)cc1OC (stereo not given)	·	18%	-3.0%	3.5µM*	?	-4	4.2
Cc1cccc(NC(=O)NNC(=O)c2ccccn2)c1	·	3%	-2.7%	·	15%	-4	·
Cc1cc(C(=O)NCC(=O)OCC(=O)N(C(C)C)C(C)C)ccc1[N+](=O)[O-]	-5	-10%	-0.5%	19%	3%[15.4 µM]	-4	5.4
CCN(CC)CCn1c(SCC(=O)Nc2ccc(F)cc2)nc2c(sc3ccccc32)c1=O	-23	·	·	-3%	·	·	1.5
CCOC(=O)CC(=O)Nc1nnc(CC(C)C)s1	0	4%	1.1%	11%	-5%	-4	-1.9

Brought forward from above: 3 compounds, then new ones.
SMILES	TRPV1 potentiator	gsp antag	ClpP mod	Sfp PPTase inh	gsp ag	D2 PAM	Menin-MLL FL inh
Cc1cc(C(=O)NCC(=O)OCC(=O)N(C(C)C)C(C)C)ccc1[N+](=O)[O-]	-5	-10%	-0.5%	19%	3%[15.4 µM]	-4	5.4
CCN(CC)CCn1c(SCC(=O)Nc2ccc(F)cc2)nc2c(sc3ccccc32)c1=O	-23	·	·	-3%	·	·	1.5
CCOC(=O)CC(=O)Nc1nnc(CC(C)C)s1	0	4%	1.1%	11%	-5%	-4	-1.9
Cn1nc(-c2ccccc2)c(C(=O)NCC(=O)O)c1Cl	-9	8%	·	-8%	-19%[15.4 µM]	-13	-0.2
COC(=O)CS(=O)(=O)c1ccsc1C(=O)Nc1ccc(F)cc1	1	-4%	·	-11%	-18%	-8	-2.2
CCc1ccc(S(=O)(=O)NC2CCCCNC2=O)cc1 (stereo not given)	-7	13%	1.3%	20%	-3%	0	3.6
Oc1ccccc1C=NN=CC=Cc1ccccc1	·	1%	-6.3%	·	1%	-12	·
COc1ccc(CCNC(=O)CCC(=O)N2CCOc3ccccc32)cc1OC	16	4%	-1.3%	9%	-68%[inhibitor]	-6	-1.3
O=C(Nc1ccc(N2CCOCC2)cc1)c1ccc(Cl)nc1	-1	-6%	-1.7%	1%	?	-25	0.5
O=C(N/N=C/c1cnc(N2CCOCC2)s1)c1ccccc1	13	-2%	-0.3%	-11%	7%[15.4 µM]	-3	2.9
O=C(COC(=O)c1ccc(Br)cc1)NCCc1ccccc1	-5	11%	2.1%	6%	-53%[inhibitor]	-12	-0.9
CCCCCC(=O)NC(=S)Nc1ccc(Cl)cn1	-15	0%	2.3%	-7%	26%	-7	5.3
Cc1nnc(NC(=O)CSc2nnc(C(C)NC(=O)c3ccccc3F)n2C)s1 (stereo not given)	-8	4%	0.4%	7%	-4%	-5	-4.4
Cc1cc(NC(=O)C(C)SCC(=O)OC(C)C(=O)Nc2ccccc2C)no1 (stereo not given)	6	8%	0.3%	11%	-43%[inhibitor]	-1	·
Cc1ccc(NC(=O)CN(C)C(=O)c2cccc(S(=O)(=O)NCc3cccs3)c2)cc1	-16	-7%	0.8%	·	2%	-6	·
CC(C)(C)OC(=O)N1CCC(C(=O)Nc2cccc(C(=O)N3CCCC3)c2)CC1	·	-4%	0.4%	·	·	-10	·
Cc1ccc(C2NC(=O)c3ccccc3N2)c(C)c1 (stereo not given)	·	15%	28µM*	·	17%	-6	·
Cc1cc(C)nc(N2CCCC(C(=O)Nc3cccc(Cl)c3)C2)n1 (stereo not given)	0	3%	·	9%	10%	-4	-1.8
O=C(COc1ccc2c(c1)oc(=O)c1ccccc12)N[C@@H](Cc1ccccc1)C(=O)O	6	7%	4.8%	8%	·	18	2.5
Cc1nc2ccc(NC(=O)N3CCOCC3)cc2s1	2	-5%	-5.4%	10%	?	-1	2.9
O=[N+]([O-])c1ccc(O)c(NC(=S)Nc2ccccc2)c1	-5	-19%	1.3%	50µM*	-25%	-28	3.5
CC(=O)N[C@@H](C)C(=O)N1CCC(n2nccc2NC(=O)CCCc2ccccc2)CC1	-13	20%	1.1%	17%	-52%[inhibitor]	-5	-0.6
COc1ccc(N(CC(=O)N2CCC(C(N)=O)CC2)S(=O)(=O)c2ccccc2)cc1	3	15%	·	10%	-8%[15.4 µM]	2	-5.3
